DNA Pol III inh – blocks replication by bacterial DNA polymerase III holoenzyme | reconstituted DNA polymerase III holoenzyme replication, biochemical | Potency, µM (titrated, usually from 57.1 µM), without a hit: at the highest dose activity change, negative = inhibition | 71,000 compounds, 0.25% hits | AID 603; also: potency is read from the fitted curve at half-maximal effect; % is scaled to controls: 0 for no effect and ±100 for the full control effect
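Reconstituted *E. coli* holoenzyme (0.35 nM Pol III, 1 nM beta, 154 nM SSB, 2 nM primase) was preincubated with compound for 15 min at RT. Synthesis on 1.4 nM ssM13Gori ran 35 min, then was stopped with PicoGreen/EDTA and read as dsDNA fluorescence.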
Epigenetic mod – epigenetic modulators derepressing GFP locus in mouse cells; AID 597; 68,000 compounds, 0.09% hits; Potency, µM (series often up to 46.1 µM), for the others: top-dose GFP derepression (activation); mouse C127i GFP locus derepression, cytometry, 30 h; also: % of control where 0% means no effect
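Locus derepression in mouse mammary C127i cells whose integrated CMV-GFP reporter is normally silent; GFP expression after 30 h compound treatment was quantified by counting fluorescent cells.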
ERK AVP block – inhibitors of vasopressin-stimulated ERK signaling pathway; 72,000 compounds, 0.99% hits; Potency, µM (top dose mostly 57.5 µM), inactives show top-dose activity, negative = inhibition, actives largely listed as inhibitors; AID 995; HEK293-V1b, vasopressin-stimulated pERK AlphaScreen; also: potency is read from the fitted curve at half-maximal effect; % is scaled to controls: 0 for no effect and ±100 for the full control effect; nearly all actives have a fitted effect of over 55% in size
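Phosphorylated ERK1/2 detected via AlphaScreen bead proximity in lysates of V1b-expressing HEK293 cells given 25 nM vasopressin for 5 min after 30 min compound exposure (37 °C). AC50 from Hill equation; basal DMSO 0%, vasopressin 100%.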
CRE-bla Fsk – CRE-bla signaling modulation under forskolin stimulation; 71,000 compounds, 2.5% hits; CHO CRE-bla reporter (cAMP response element driving beta-lactamase), forskolin EC10, beta-lactamase ratio; Potency, µM (top dose mostly 38.2 µM), for the others: at the highest dose activity change, negative = inhibition, actives largely listed as activators; active = well fitted activation curve with a large enough effect in the signal ratio, with a control signal flat, not every such curve was filed as active; inconclusive = small, poorly fitted or top-dose-only effect, or effect the other way, or a change in a side signal; the % refers to the signal ratio; also: potency is read from the fitted curve at half-maximal effect; % of control where 0% means no effect
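CRE-bla CHO reporter cells treated with compound titration plus EC10 NKH 477 (water-soluble forskolin), incubated 3 h at 37 °C; CCF4 loading 2 h at room temperature, 460/530 nm emission ratio read, AC50 values derived for positive or negative modulators.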
FLuc inh – firefly luciferase inhibition | P08659 | purified firefly luciferase, luminescence, 8 min | Potency, µM (titrated, usually from 57.1 µM), without a hit: at the highest dose activity change, negative = inhibition, usual class: inhibitors | 72,000 compounds, 2.2% hits | AID 411; also: potency is read from the fitted curve at half-maximal effect; % is scaled to controls: 0 for no effect and ±100 for the full control effect; nearly all actives have a fitted effect of over 40% in size
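Luminescence read-out after 8 min at room temperature; enzyme reaction used luciferin plus 10 uM ATP (linear range) in imidazole buffer pH 7.2 with KCl, MgCl2, Tween 20 and BSA. Each sample was run as a titration.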
Tau fil binding – binds recombinant human tau filaments; 71,000 compounds, 2% hits; Potency, µM (titrated, usually from 57.1 µM), inactives show at the highest dose activity change, negative = inhibition; recombinant tau filaments, thioflavin S fluorescence, 15 h; filaments grown with octadecylsulfate alongside compound;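 also: potency is read from the fitted curve at half-maximal effect; % is scaled to controls: 0 for no effect and ±100 for the full control effect; actives lower thioflavin S fluorescence by blocking filaments or displacing dye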
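Tau 2 uM in ThS buffer dispensed; compound added; 60 uM ODS added (finals 1 uM tau, 30 uM ODS); 15 h 37 C; fluor ex450/em510.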
Hsp90 Hop PPI – changes Hsp90-Hop TPR2A binding signal, up or down | AlphaScreen TPR2A-His6 binding biotin-Hsp90 C-terminal peptide | Potency, µM (doses to about 57 µM), for inactives: at the top dose activity change, negative = inhibition | 71,000 compounds, 0.44% hits | AID 595; active = well fitted curve in either direction with a large enough effect; inconclusive = small, poorly fitted or top-dose-only effect, or another doubt; also: potency is read from the fitted curve at half-maximal effect; % is scaled to controls: 0 for no effect and ±100 for the full control effect; many of its hits are not listed in these tables
UbGFP stabilizer – proteasome inhibitors stabilizing ubiquitin-GFP reporter. Ubiquitin-GFP reporter cells, proteasome inhibition, GFP fluorescence; response scale: untreated = 0%, 10 µM MG-132 = 100%. Potency, µM (series often up to 45.9 µM), without a hit: top-dose activation (GFP accumulation), usual class: activators. 67,000 tested, under 10 active. AID 526; active = well fitted activation curve with a large enough effect, not every such curve was filed as active; inconclusive = small, poorly fitted or top-dose-only effect, or another doubt; inactive = no such curve, though single readings can be large or run the other way; also: potency is read from the fitted curve at half-maximal effect
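GFP accumulation read-out: laser plate cytometry counting ubiquitin(G76V)-GFP-expressing U2OS cells after 4 hr compound exposure at 37 °C. Titrations spanned 46 uM to 2.9 nM; 0% = basal, 100% = 10 uM MG-132; concentration-response curves fitted.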
HBB splice mod – alters splicing of the hemoglobin beta chain; HBB splicing reporter cell assay, activation; EGFP reporter with mutant IVS2-654 intron; response scale: normalised to 500 nM splice-correcting PNA; 65,000 compounds, 0.06% hits; Potency, µM (titrated, usually from 46.1 µM), for the others: at the top dose activation, hits mostly activators; also: potency is read from the fitted curve at half-maximal effect; 0% is about no effect
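Compounds were applied for 2 days to HeLa EGFP-654 cells, 500/well in Optimem with 2% FCS. The reporter's EGFP is disrupted by mis-splicing of beta-globin intron IVS2-654. Readout: summed well GFP fluorescence from 488 nm laser scanning; reference was 500 nM antisense […] 654 PNA.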
ALOX15 inhib – blocks human 15-lipoxygenase activity; 74,000 compounds, 1.4% hits; P16050; AID 887; Potency, µM (series often up to 57.1 µM), without a hit: top-dose activity change, negative = inhibition, actives largely listed as inhibitors; purified 15hLO-1, xylenol orange hydroperoxide absorbance; also: potency is read from the fitted curve at half-maximal effect; % is scaled to controls: 0 for no effect and ±100 for the full control effect; nearly all actives have a fitted effect of over 55% in size
Target sequence (P16050 whole entry, looked up): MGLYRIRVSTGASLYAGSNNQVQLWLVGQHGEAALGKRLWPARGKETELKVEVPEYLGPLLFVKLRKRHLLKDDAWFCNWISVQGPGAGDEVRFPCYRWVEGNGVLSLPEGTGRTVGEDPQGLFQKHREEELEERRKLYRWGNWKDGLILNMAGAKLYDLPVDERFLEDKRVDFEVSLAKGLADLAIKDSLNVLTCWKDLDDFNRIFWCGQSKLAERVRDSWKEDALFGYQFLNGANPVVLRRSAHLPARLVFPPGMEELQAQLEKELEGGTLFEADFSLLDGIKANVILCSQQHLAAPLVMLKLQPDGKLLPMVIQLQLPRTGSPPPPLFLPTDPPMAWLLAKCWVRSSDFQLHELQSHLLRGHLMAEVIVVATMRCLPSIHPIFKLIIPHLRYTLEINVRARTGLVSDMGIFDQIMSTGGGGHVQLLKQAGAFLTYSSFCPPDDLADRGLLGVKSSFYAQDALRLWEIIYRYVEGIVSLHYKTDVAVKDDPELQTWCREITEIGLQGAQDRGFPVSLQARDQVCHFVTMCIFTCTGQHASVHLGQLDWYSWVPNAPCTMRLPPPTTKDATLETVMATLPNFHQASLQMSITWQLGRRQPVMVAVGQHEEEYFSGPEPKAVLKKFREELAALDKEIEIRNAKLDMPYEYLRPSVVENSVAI
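Purified human 15hLO-1 (40 nM final) in 25 mM Hepes pH 7.5, 0.01% Triton X-100 was preincubated with compound 15 min at room temperature, then reacted 6 min with 50 uM arachidonic acid; hydroperoxide detected by Fe-XO, 573/405 nm absorbance ratio.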
Numbers without * were called inactive; ? = inconclusive; . = not tested or not shown; [ ] = dose if it differs, or a comment. Unless noted, calls follow the shape of the dose curve; as a rule, active = well fitted curve in the direction sought with a large enough effect; inconclusive = small, poorly fitted or top-dose-only effect, or another doubt; inactive = no such curve, though single readings can be large; an effect the other way counts as inactive or inconclusive. Not all compounds are listed. The share of hits here may be higher or lower than overall.

SMILES	DNA Pol III inh	Epigenetic mod	ERK AVP block	CRE-bla Fsk	FLuc inh	Tau fil binding	Hsp90 Hop PPI	UbGFP stabilizer	HBB splice mod	ALOX15 inhib
CCc1nc2c(n1O)CCc1nonc1-2	-0.4%	8.7%	-21.3%	?	-2.1%	7.3%	-7.7%	-14.9%	-1.8%	-17.0%
CC12C=C(/C=C/c3ccc(Br)cc3)C(C)(C1)C(c1ccc(Br)cc1)CC2=O (stereo not drawn)	.	.	18.1%[11.5 µM]	.	.	.	.	.	0.7%[9.22 µM]	-11.5%[11.4 µM]
c1ccc(Cc2nnc3sc(-c4ccc5c(c4)OCCO5)nn23)cc1	-3.6%	.	.	?	-22.7%	4.9%	-11.1%	4.4%	-0.5%	-0.9%
CC1Cc2nc(SCC(=O)N3CCc4ccccc43)n(C)c(=O)c2S1 (stereo not drawn)	2.2%	0.0%	15.3%	-10.4%	-1.3%	-4.0%	-6.1%	17.1%	1.4%	-5.6%
Cc1nnc(NC(=O)CSc2nnc(Cc3cccn3C)n2CCc2ccccc2)s1	-3.5%	1.8%	18.0%	10.9%	-0.8%	-1.9%	-4.6%	0.9%	0.4%	-3.3%
CCCc1ccc(OCc2ccc(C(=O)N3CCN(c4ccccn4)CC3)o2)c(OC)c1	1.4%	0.0%	?	?	-0.8%	81.1%	-5.5%	1.0%	-0.5%	-11.9%
c1csc(-c2nn3c(Cn4cnc5ccccc54)nnc3s2)c1	-9.0%	16.1%	-18.9%	22.4%	4.0%	-0.7%	-6.3%	0.6%	0.9%	?
Oc1ccccc1C(=S)N1CCCCC1	-8.7%	-1.6%	-2.1%	4.0%	-0.6%	-3.6%	-3.7%	-15.6%	1.3%	-23.6%
O=C(CSCCSCC(=O)c1ccco1)c1ccco1	-4.6%	1.9%	-23.1%	-1.9%	3.2%	-10.0%	-0.2%	4.8%	-0.3%[57.5 µM]	?
Nc1cc(OC(=O)c2ccco2)nn1S(=O)(=O)c1ccc(F)cc1	-1.0%	0.0%	37.2%[activator]	-9.8%	1.1%	-9.4%	-1.1%	6.1%	.	-7.3%
COCCNC(=O)CN(c1ccc(OC)c(OC)c1)S(=O)(=O)c1ccc(C)cc1	.	.	.	.	.	.	.	.	.	4.3%
O=C(NCc1cccs1)C1CC(c2ccccc2O)=NO1 (stereo not drawn)	0.1%	-1.7%	-17.7%	-1.8%	-0.5%	4.4%	1.4%	-4.4%	-1.6%	-19.7%
Cc1nc2nc(C)n(-c3ccccc3)c2s1	-1.7%	0.0%	-7.9%	?	-1.7%	-17.9%	-1.3%	3.8%	.	?
Cc1ccccc1N(C)S(=O)(=O)c1ccc2[nH]cc(C(=O)NCC3CCCO3)c(=O)c2c1 (stereo not drawn)	-6.9%	-2.6%	-10.2%	-12.4%	-0.2%	15.6%	0.4%	25.0%	0.2%	-8.2%
Clc1ccc(OCc2nn3c(-c4ccccc4)nnc3s2)c(Cl)c1	2.7%	-0.1%	4.3%	-5.1%	-0.9%	12.1%	-1.4%	0.4%	-1.6%	-7.9%
CCNc1ncc2nc(-c3ccc(Cl)cc3)c(=O)n(Cc3cccs3)c2n1	-4.1%	5.4%[9.22 µM]	-17.5%	?	0.5%[11.4 µM]	41.7%	-1.5%	-6.7%	1.2%	-10.4%
Cc1ccc(NC(=O)c2cc(-c3ccco3)on2)cc1	-2.4%	2.1%	4.6%	-4.2%	-24.2%	?	0.4%	-2.4%	-0.3%	-7.4%
CC(C)C(=O)N1CCc2cc(-c3csc(N)n3)ccc21	-2.0%	?	16.8%	?	?	-25.4%	-15.7%	-16.1%	-0.1%	?
Cc1c(N=C2NC(=O)C(CC(=O)Nc3ccc(Cl)cc3)S2)c(=O)n(-c2ccccc2)n1C (stereo not drawn)	-2.1%	2.6%	-6.0%	-13.8%	-0.2%	0.9%	-4.9%	2.5%	1.4%	9.1%
O=C(CC(Nc1ccccc1)C(=O)O)c1ccccc1 (stereo not drawn)	-10.3%	-4.5%	-23.1%	?	12.6µM*	-28.5%	-5.0%	-1.0%	-0.6%[57.5 µM]	?
O=C1C(Cl)=C(N2CCCCC2)C(=O)N1c1ccccc1	-1.7%	3.4%	2.8%	4.7%	-2.1%	-3.8%	?	-9.2%	-3.3%	15.8µM*
COc1cccc(-c2nn(C)c3sc(C(=O)NCc4ccccn4)cc23)c1	-3.1%	0.0%	-0.4%	7.94µM*	-5.5%	23.0%	?	-4.8%	-0.1%	-8.3%
CC(=O)C1=C(C)NC(SCC(=O)c2ccc(C)cc2)=C(C#N)C1c1ccco1 (stereo not drawn)	0.9%	1.9%	-15.4%	?	-14.5%	217.4%	15.0%	-7.9%	?	12.6µM*
CCN(CC)C(=O)C(C)N(C#N)c1nc(SC)nc(N(C)C)n1 (stereo not drawn)	1.4%	6.0%	-6.1%	14.5%	-3.4%	6.9%	-1.9%	1.0%	-0.8%	?
CCOC(=O)NC1(NCc2ccccc2)Oc2ccccc2O1	-3.9%	1.6%	-7.6%	-14.9%	-0.2%	-5.1%	-2.4%	-1.0%	-0.3%[57.5 µM]	-24.4%
The list continues:
SMILES	DNA Pol III inh	Epigenetic mod	ERK AVP block	CRE-bla Fsk	FLuc inh	Tau fil binding	Hsp90 Hop PPI	UbGFP stabilizer	HBB splice mod	ALOX15 inhib
Clc1cccc(-c2nn3c(Cn4cnc5ccccc54)nnc3s2)c1	-6.6%	-1.6%	-29.8%	?	2.3%	-2.9%	-1.6%	-5.3%	-2.2%[57.5 µM]	-3.8%
CCOc1ccccc1-c1nc2c([nH]1)c(=O)n(C)c(=O)n2C	-2.2%	4.3%	-21.0%	16.3%	1.4%	-2.6%	-4.4%	-2.6%	-2.3%[57.5 µM]	-1.5%
COc1ccc(N2CC(O)=C(c3nc4ccccc4s3)C2=N)c(OC)c1	-4.1%	-2.4%	2.0%	-9.5%	-3.5%	-4.0%	?	4.6%	-0.1%	-3.9%
CC(=O)C1=C(C)NC(SCSc2ccccc2)=C(C#N)C1c1cccnc1 (stereo not drawn)	-1.2%	9.3%	-6.5%	?	-10.0%	-12.8%	8.3%	23.4%	-0.7%	0.316µM*
COc1ccc(-c2nc3ccccc3o2)cc1NC(=O)c1ccc(Br)o1	-0.5%	1.8%	-25.9%	15.4%	-0.2%	254.3%	-3.5%	2.7%	1.0%	-5.9%
COC(=O)c1c(-c2cccc(C)c2)csc1N	-5.5%	2.6%	-11.1%	?	-4.7%	?	-6.5%	0.8%	-0.6%	-20.5%
CCOC(=O)c1sc(=S)n(-c2cc(F)ccc2F)c1N	2.3%	0.0%	-6.3%	?	-1.3%	-2.1%	-8.8%	.	-0.8%[0.369 µM]	?
CC1CCCCN1C(=O)CSc1nc(C2CC2)nc2c1cnn2-c1ccccc1 (stereo not drawn)	-1.1%	1.2%	-1.6%	19.0%	5.3%	7.2%	-1.6%	-2.5%	-1.3%	?
NC(=O)c1c(-c2cccs2)csc1N	-1.9%	-1.6%	-18.4%	-12.7%	-5.5%	-8.6%	-8.4%	0.5%	0.8%	-23.7%
Cc1cc(=O)n2c3c(sc2n1)C(=O)N(Cc1ccccc1)C3=O	-3.3%	0.0%	-13.1%	-10.1%	-1.7%	-4.8%	0.1%	-3.1%	0.4%[57.5 µM]	-6.9%
CCCOc1ccc(C(=O)C(c2ccccc2)N2CCOCC2)cc1 (stereo not drawn)	1.7%	-1.0%	-5.4%	11.0%	1.1%	-3.2%	-1.9%	-1.8%	.	-0.6%
Cc1ccccc1NC(=O)N1CCCC(c2nc(-c3ccc(F)cc3)no2)C1 (stereo not drawn)	-10.1%	1.3%	-15.4%	-8.0%	0.0%	2.4%	-3.1%	0.0%	-0.6%	-3.9%
CCC(=O)/C=C1\Sc2ccc(OC)cc2N1CC	0.5%[11.4 µM]	23.1%	-24.1%	?	-1.7%	7.3%[11.4 µM]	-4.1%[11 µM]	-6.2%[9.17 µM]	2.1%[0.0738 µM]	-27.7%[11.4 µM]
COC(=O)c1nc(NC(=O)C(C)(C)C)n[nH]1	-0.9%	-1.6%	17.7%	?	-0.5%	-6.2%	-1.3%	2.7%	0.1%[57.5 µM]	-5.8%
COc1ccccc1OCC(=O)Sc1ccc(C)cc1	-7.0%	0.0%	9.7%	22.1%	-0.3%	9.6%	-1.6%	-3.1%	-3.0%	-26.4%
Cc1noc(C)c1CN1C(=O)NC2(CCCCCCC2)C1=O	3.0%	5.4%	7.6%	-2.3%	1.9%	6.0%	-1.3%	-1.0%	0.3%[57.5 µM]	3.7%
